# Screening data as filed in PubChem.
# TRPML1 agonist = qHTS for Agonists of the Human Mucolipin Transient Receptor Potential 1 (TRPML1) | hit rate 0.12% among 410,000 | activation, % (test concentration not listed) | Mucolipin-1 (Homo sapiens), Q9GZU1 | TRPML1-expressing cells, Ca2+ dye fluorescence, FDSS; host cell line not named in the record; reference of the full effect not given here | AID 624414, 2012; in the data active = activation above about 50%; inconclusive = about 30% to 50%; inactive = below about 30%; also: 0% is about no effect; the text of the record puts the active cut at 80%
# Target sequence (Q9GZU1 whole entry, looked up): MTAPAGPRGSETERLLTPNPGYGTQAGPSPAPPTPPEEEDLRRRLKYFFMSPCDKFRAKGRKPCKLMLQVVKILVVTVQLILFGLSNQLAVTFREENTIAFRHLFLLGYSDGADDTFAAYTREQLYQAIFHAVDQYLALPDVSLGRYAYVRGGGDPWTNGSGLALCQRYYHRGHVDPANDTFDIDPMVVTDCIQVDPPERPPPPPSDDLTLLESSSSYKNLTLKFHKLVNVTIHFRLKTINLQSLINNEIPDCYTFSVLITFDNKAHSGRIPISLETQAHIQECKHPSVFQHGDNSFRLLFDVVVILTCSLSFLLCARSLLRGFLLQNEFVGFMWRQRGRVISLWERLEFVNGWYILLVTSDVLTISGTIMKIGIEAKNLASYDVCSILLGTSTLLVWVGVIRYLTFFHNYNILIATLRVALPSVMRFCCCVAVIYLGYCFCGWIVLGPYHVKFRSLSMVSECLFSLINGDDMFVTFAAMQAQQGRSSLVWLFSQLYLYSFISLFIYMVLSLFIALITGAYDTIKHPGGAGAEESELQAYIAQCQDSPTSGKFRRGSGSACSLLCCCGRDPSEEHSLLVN
#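 Calcium fluorescence on an FDSS kinetic reader gave the read-out. Tet-induced TRPML1-DL cells were plated overnight, dye-loaded (Ca8 with quencher, 45-90 min, room temperature, dark), then read 110 s after compound addition, and again 110 s after 4uM final 54-4 (EC80).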
# CtBP-E1A blk = qHTS Assay for Inhibitors of the CtBP/E1A Interaction; CtBP / adenovirus E1A interaction (AlphaScreen); AID 651724, 2012; AlphaScreen GST-E1A/His-CtBP binding, 1536-well; stronger effect = lower value; control for the full effect not named in the record; hit rate 0.49% among 340,000; activity change, % (no concentration beside the values); in the data active means activity change below about -65%; inconclusive means about -30% to -65%; inactive means above about -30%; also: % is scaled to controls: 0 for no effect and ±100 for the full control effect; compound concentration not given in the record
#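 Steps: dispense buffer (Tris pH 8.0, NaCl 300 mM, TCEP 1 mM, BSA, Tween 20); add 5X protein mix (GST-E1A, His-CtBP, 125 nM each); pin 23 nL compound; 2 h at 37 °C, dark; add 5X beads (50 ug/mL); 1 h; read.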
# D2 ag = Beta-Arrestin HTS for Positive Allosteric Modulators of the Human D2 Dopamine Receptor: Agonists; D(2) dopamine receptor (Homo sapiens), P14416; DiscoveRx PathHunter D2 beta-arrestin, luminescence, 90 min; 100% = 57 uM dopamine signal; activation, % (concentration not given with the values); hit rate 0.084% among 360,000; in the data active = activation above about 40%; inconclusive = about 15% to 40%; inactive = below about 15%; also: compound concentration not given in the record; the text of the record calls up to 30% inactive
# Target sequence (P14416 whole entry, looked up): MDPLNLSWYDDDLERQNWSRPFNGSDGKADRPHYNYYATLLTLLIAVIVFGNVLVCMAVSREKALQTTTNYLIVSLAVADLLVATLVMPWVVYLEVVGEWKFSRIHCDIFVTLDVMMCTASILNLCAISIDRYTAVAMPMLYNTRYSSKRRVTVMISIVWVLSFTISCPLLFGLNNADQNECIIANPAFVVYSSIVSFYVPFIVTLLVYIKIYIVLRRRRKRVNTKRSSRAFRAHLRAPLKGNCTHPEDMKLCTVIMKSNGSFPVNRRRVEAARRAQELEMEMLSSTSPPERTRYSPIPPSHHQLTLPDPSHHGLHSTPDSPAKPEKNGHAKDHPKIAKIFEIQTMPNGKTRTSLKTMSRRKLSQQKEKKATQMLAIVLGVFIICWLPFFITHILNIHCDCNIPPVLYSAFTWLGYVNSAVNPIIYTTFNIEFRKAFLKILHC
#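 Agonist mode: compounds alone added to overnight-plated D2 PathHunter cells for 90 min at 37 C, with 57 uM final dopamine (EC100) defining full response. Beta-arrestin recruitment detected by chemiluminescent reagent, read after 1 h at ambient temperature.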
# PINK1 expr mod = A Quantitative High throughput Screen to Identify Chemical Modulators of PINK1 Expression | PINK1 immunofluorescence, high-content cytometry, 24 h | Potency, µM (highest dose often 76.6 µM), inactives show at the top dose activation (PINK1 increase), usual class: activators | hit rate 0.2% among 410,000; active = well fitted activation curve with a large enough effect; inconclusive = small, poorly fitted or top-dose-only effect; inactive = flat fitted curve, though single readings scatter; cell line not stated here;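 also: potency is read from the fitted curve at half-maximal effect; % of control where 0% means no effect; nearly all actives have a fitted effect of over 65% in size; a mitochondrial uncoupler was the plate control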
#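 Measures PINK1 amount and localization on or inside mitochondria by immunofluorescence. Stable cells get compounds at 5 concentrations for 24 hours before fixation and staining; CCCP controls included.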
# Six1-Eya2 blk = qHTS Assay for Inhibitors of the Six1/Eya2 Interaction. Homeobox protein SIX1 (Homo sapiens) + Protein phosphatase EYA2 (Homo sapiens), …. AlphaScreen GST-Six1/His-Eya2 binding, biochemical; stronger effect = lower value; control for the full effect not named in the record. activity change, % (test concentration not listed). hit rate 0.56% among 360,000. AID 651725, 2012; in the data active = activity change below about -65%; inconclusive = about -30% to -65%; inactive = above about -30%; also: % is scaled to controls: 0 for no effect and ±100 for the full control effect; compound concentration not given in the record
#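 AlphaScreen luminescence read after one hour at 37 °C in darkness. Pin-transferred compounds met GST-Six1 and His-Eya2 protein (5X stock 250 nM/500 nM) plus glutathione donor and Ni-chelate acceptor beads (5X, 50 ug/mL).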
# D2 potentiator = Beta-Arrestin HTS for Positive Allosteric Modulators of the Human D2 Dopamine Receptor: Potentiators. D(2) dopamine receptor (Homo sapiens), P14416. DiscoveRx D2 beta-arrestin cells, luminescence, 90 min; 100% = 57 uM dopamine signal. potentiation, % (concentration not given with the values). hit rate 0.23% among 360,000. AID 624464, 2012; active = potentiation of 50% or more; inconclusive = 30% to 50%; inactive = 30% or less;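 also: compound concentration not given in the record; tested on top of an EC20 dose of dopamine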
#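 PathHunter beta-arrestin assay in DiscoveRx D2 cells. Compounds were added with an EC20 of dopamine (50 nM final) for 90 min at 37 deg C. Luminescence was read 1 h after detection reagent, with 57 uM dopamine as the EC100 control.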
# Active calls of the source: *; u = inconclusive; x = not tested or not shown; & = joins results of further samples; [ ] = remark or other dose. No enrichment for hits; overall some 1.3% were active at least once.
cpd	Structure	Six1-Eya2 blk	D2 ag	CtBP-E1A blk	D2 potentiator	PINK1 expr mod	TRPML1 agonist
1	CC1CN(C(=O)c2cccs2)CC(C)O1 (stereo not drawn)	-5	-3.9	0	-6	-0.4%	-0.7
2	CCOC(=O)C1(Cc2ccc(OC)cc2)CCN(C(=O)c2cc(C)on2)CC1	-1	-3.5	x	-5	3.8%	-0.5
3	CCOc1ccc(C(=O)NCc2cccs2)cc1	12	0.5	1	-7	-2.8%	-0.9
4	COCCNc1nnc(SCC(=O)c2ccc3c(c2)OCO3)s1	-1	-3.1	-1	-6	-2.2%	0.0
5	CN1CCCC(OC(=O)c2cc(Cl)cc(Cl)c2)C1 (stereo not drawn)	3	-7.0	-1	-12	2.2%	0.7
6	CCOC(=O)Cn1nnnc1CN(Cc1ccc(OC)cc1)Cc1cc2cc(CC)ccc2[nH]c1=O	-14	-1.2	-14	-10	-1.5%[38.3 µM]	-0.5
7	CCc1c(C)c(C#N)c2nc3ccccc3n2c1NCCCN(C)C	-1	-0.9	3	-9	0.6%	-0.2
8	Cc1ccc(NC(=O)CSc2n[nH]c(C)c2[N+](=O)[O-])cc1C	-3	2.0	-4	-22	9.6%	-0.8
9	O=C(/C=C/c1ccccc1)NC(=O)c1ccccc1O	-10	-7.8	-8	-23	2.0%	1.5
10	COc1ccc(NC(=O)CCN2C(=O)C3CC=CCC3C2=O)cc1S(=O)(=O)N1CCCCC1 (stereo not drawn)	4	-7.3	-2	-6	-0.6%	1.2
11	Cc1cccc(NC(=O)CSc2nc(COc3ccccc3)nc3ccccc23)c1C	1	2.0	6	-13	12%[38.3 µM]	1.0
12	CC(NC(=O)C1CCN(S(=O)(=O)c2cccc3nonc23)CC1)c1ccccc1 (stereo not drawn)	-7	3.7	-3	-4	2.1%	0.4
13	COc1ccc(C(C)=O)cc1CSCc1cc(C(C)=O)ccc1OC	-4	-0.1	3	-3	3.2%	-1.1
14	CC(=O)Nc1ccc(S(=O)(=O)n2cnc3ccccc32)cc1	17	-4.9	26	25	-0.3%	-0.2
15	CC1(C)O[C@@H]2[C@H](O1)[C@@H](COS(=O)(=O)O)O[C@H]2n1c(=S)[nH]c2c(=O)[nH]c(N)nc21	-9	-4.2	-2	-9	-0.7%	-0.6
16	Nc1ccc(C(=O)N/N=C/c2cn(Cc3ccc(F)cc3)c3ccccc23)cc1	-9	0.8	-19	0	3.4%	-0.6
17	CN(C)C(CNC(C(=O)Nc1ccc(F)cc1)c1ccccc1)c1ccccc1 (stereo not drawn)	0	-1.3	-6	-14	1.3%	0.8
18	Cc1cc(C)nc(N/C(=N\S(=O)(=O)Cc2ccccc2)Nc2ccccc2Br)n1	-11	-3.7	0	-12	-2.1%	2.9
19	CCCc1cc(=O)[nH]c(SCC(=O)N2CCN(S(=O)(=O)c3ccc(C)cc3)C2)n1	6	5.9	-18	5	-0.7%	-1.1
20	COc1ccc(S(=O)(=O)N2CCOC2CNC(=O)C(=O)NCCCN2CCOCC2)cc1C (stereo not drawn)	9	-0.1	5	-3	1.9%	0.2
21	C#CCSc1nnnn1-c1cccc(Cl)c1	16	1.8	19	-3	-0.5%	2.4
22	C=CCn1c(SCC(=O)Nc2cc(C)on2)nc2sc(C)c(C)c2c1=O	3	2.3	x	0	10%	0.3
23	CCOC(=O)c1cc(-c2cccs2)nc2c1c(C)nn2-c1ccccn1	-1	-3.5	3	-3	-1.1%	0.6
24	CCC(=O)N1CCC2(CC1)Oc1ccc(Cl)cc1C(=O)C21CC(c2cccnc2)=NO1 (stereo not drawn)	1	-2.7	1	-11	0.7%	-0.2
25	CCCC(=O)C1=C(SCC)CC(C)(C)C(C(=O)OC)C1=O (stereo not drawn)	8	-0.1	-3	6	1.8%	-0.6
26	S=c1[nH]nc(C2CCCCC2)n1/N=C/c1ccccc1Cl	-15	-1.7	-2	-13	8.0%	0.5
27	O=C(NCc1ccc(F)cc1)C1CCN(S(=O)(=O)N2CCCC2)CC1	0	3.5	x	-9	-0.6%	0.1
28	O=c1[nH]c(SCc2ccc(F)cc2)nc2c1cnn2-c1ccc(F)cc1	-9	-2.1	4	-10	2.4%	0.4
29	O=c1c(=O)n(O)c2ccccc2n1O	1	0.9	8	-1	x	-0.1
30	COc1ccc(OC)c(C=C2CCc3ccccc3C2=O)c1	-9	3.2	0	1	4.2%	-1.0
31	COc1ccc(Cn2nnnc2CN2CCc3ccccc3C2)cc1	3	u	-1	11	-0.3%	1.4
32	COc1cc(C(C)n2nnc3ccccc32)ccc1O (stereo not drawn)	0	-1.8	4	0	-0.1%	-1.0
33	Cc1ccc(S(=O)(=O)N2CCC(C(=O)NNC(=O)c3ccc(F)cc3)CC2)cc1	-1	-1.8	-1	-6	5.2%	-0.3
34	Cc1ccccc1N(CC(=O)N1CCN(c2ccccc2)CC1)S(C)(=O)=O	0	0.3	-6	0	0.9%	-0.9
35	COc1ccccc1C(=O)Nc1cc(Cl)ccc1-n1cncn1	-1	1.9	4	3	0.2%	1.4
36	CCOc1cccc(CN2CCCC(C(=O)c3cc(Cl)ccc3OC)C2)c1O (stereo not drawn)	-13	1.7	-27	-22	13%	0.9
37	C/C(CC(=O)NCc1ccc(F)cc1)=N\NC(N)=S	0	-2.5	-2	-5	0.5%	0.0
38	c1ccc(CC(Nc2ccccn2)c2ccccc2)cc1 (stereo not drawn)	6	-5.8	-12	-22	4.5%	0.0
39	CCOc1[nH]c(/N=C/c2ccco2)c(C#N)c1C#N	-6	8.1	-4	u	-1.0%&1.7%	1.8&-0.2
40	O=C(OCC(=O)N1CCN(c2ccccc2)CC1)c1ccc[n+]([O-])c1	-6	-3.2	3	-4	-0.3%	-1.3
41	CN(C)CC1(c2ccccc2)CCCC1	0	0.9	-2	7	-1.0%	0.3
42	Cc1ccc(NC(=O)COc2cccc(C)c2C)cc1S(=O)(=O)N1CCCCCC1	3	-0.5	1	-21	-2.9%	1.4
43	CN(c1ccccc1)S(=O)(=O)c1ccc(C(=O)Nc2nnc(C3=COCCO3)o2)cc1	3	-4.7	-22	-6	2.0%	1.3
44	CCOC(=O)c1cnc(SCC(=O)N2CCOCC2)nc1N	13	-2.0	0	-9	2.7%	0.4
45	Cc1ncoc1C(=O)Nc1nccs1	6	-1.1	-1	-8	3.4%[38.3 µM]	-0.1
46	COc1ccc(C(CC(=O)O)NC(=O)c2cc3cc(Br)ccc3oc2=O)cc1OC (stereo not drawn)	0	-2.8	6	-8	0.1%	-0.9
47	COc1ccc(CCNC(=O)c2ccccc2NC(=O)C2=C(C)OCCS2)cc1OC	-4	5.6	-23	19	-0.3%	-0.3
48	CC(C)C/C(O)=C/c1nc2cc(Cl)ccc2oc1=O	-5	5.4	-12	u	-0.8%	0.5
49	Cc1ccc(S(=O)(=O)N2CCc3ccccc3CC2)cc1	6	-3.2	21	-10	0.1%	0.7
50	CCCOc1ccc(CNC(=O)C2CCN(c3nnc(N4CCCC4=O)s3)CC2)cc1	-3	-3.1	0	-3	1.2%	-0.4
51	COc1ccc(-c2ccc(-c3noc(-c4ccccc4OC)n3)c(OC)n2)cc1	-1	-2.6	8	16	0.7%	0.0
52	O=c1c(Cc2ccccc2)c(O)ccn1Cc1ccco1	-2	-8.3	6	-4	0.3%	-0.2
53	Cc1ccc(NC(=O)c2sc(Cl)nc2-c2ccccc2)cc1	25	1.6	14	-4	3.0%	1.3
54	CCOc1nc(C#N)nc(N2CCCCC2)n1	-10	-5.8	4	-28	2.7%&1.2%	0.0&-1.0
55	COc1ccc(CN(Cc2ccccn2)C(=O)CN2C(=O)COc3ccccc32)cc1	1	-3.9	1	-11	-2.0%[38.3 µM]	-0.4
56	O=C(CNC(=O)c1ccc(Br)cc1)c1ccccc1	6	-5.9	8	-5	-0.2%	-0.2
57	Cc1ccc(S(=O)(=O)N2CCOCC2)cc1NC(=O)CSc1nc(N)cc(N)n1	-3	-5.3	9	-11	0.3%	-0.2
58	Cc1ccc(-c2nn(-c3ccc(F)cc3)cc2C(=O)NCCCN2CCCC2=O)cc1	4	-3.5	15	-13	0.6%	-0.3
59	CC1=CCC2C(=O)N(c3ccc(N4CCOCC4)cc3)C(=O)C2C1 (stereo not drawn)	-3	-2.4	12	1	7.4%	0.2
60	Cc1nnc(SCc2nc3ccccc3s2)n1N	8	-1.2	28	0	1.3%	0.2

# Looked up above:
# Under TRPML1 agonist, no. 4 has 0.0
# Under D2 ag, no. 25 has -0.1
# Under CtBP-E1A blk, no. 5 has -1

# (next part)
cpd	Structure	Six1-Eya2 blk	D2 ag	CtBP-E1A blk	D2 potentiator	PINK1 expr mod	TRPML1 agonist
61	Cc1cc(C)c(C#N)c(SCC(=O)Nc2nonc2N)n1	-15	0.2	-10	-5	1.0%	-0.4
62	COc1cc(OC)cc(C(=O)Nc2ccc3c(c2)CCCN3C(=O)c2cccs2)c1	-10	6.9	-19	-3	2.6%&5.6%	1.6&0.1
63	CS(=O)(=O)c1ccc(C(=O)N2CCN(S(=O)(=O)c3ccc(C4CCCCC4)cc3)CC2)cc1	1	-6.2	6	-13	3.8%	0.9
64	O=C(COC(=O)COc1ccc(Cl)cc1Cl)NC1CCS(=O)(=O)C1 (stereo not drawn)	0	0.6	8	-2	1.4%	-0.1
65	CN1CCN(C(=O)CCC(=O)c2ccc(F)cc2)CC1	-1	0.4	5	11	3.4%	0.1

# Entries by screen from above.
# Nos. 61–65 in PINK1 expr mod: 1.0%, 2.6%&5.6%, 3.8%, 1.4%, 3.4%
# Nos. 61–65 in TRPML1 agonist: -0.4, 1.6&0.1, 0.9, -0.1, 0.1
# Nos. 61–65 in D2 ag: 0.2, 6.9, -6.2, 0.6, 0.4

# Reprinted at random: 5 compounds from above.
cpd	Structure	Six1-Eya2 blk	D2 ag	CtBP-E1A blk	D2 potentiator	PINK1 expr mod	TRPML1 agonist
61	Cc1cc(C)c(C#N)c(SCC(=O)Nc2nonc2N)n1	-15	0.2	-10	-5	1.0%	-0.4
63	CS(=O)(=O)c1ccc(C(=O)N2CCN(S(=O)(=O)c3ccc(C4CCCCC4)cc3)CC2)cc1	1	-6.2	6	-13	3.8%	0.9
65	CN1CCN(C(=O)CCC(=O)c2ccc(F)cc2)CC1	-1	0.4	5	11	3.4%	0.1
64	O=C(COC(=O)COc1ccc(Cl)cc1Cl)NC1CCS(=O)(=O)C1 (stereo not drawn)	0	0.6	8	-2	1.4%	-0.1
62	COc1cc(OC)cc(C(=O)Nc2ccc3c(c2)CCCN3C(=O)c2cccs2)c1	-10	6.9	-19	-3	2.6%&5.6%	1.6&0.1
